High-throughput results as filed in PubChem.
A-T KAP1 phos – potential ataxia-telangiectasia treatment. actives 0.19% (n = 320,000). […] A-T fibroblasts, KAP-1 phosphorylation AlphaLISA; neocarzinostatin DNA damage 30 min before lysis. Potency, µM (doses to about 57.5 µM), for the others: at the top dose activation, usual class: activators; further: potency means the concentration at half of the fitted maximal effect; % of control where 0% means no effect; nearly all actives have a fitted effect of over 45% in size
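ATM-like activity read as KAP-1 phosphorylation via AlphaLISA donor/acceptor antibody pairs after lysis and 6 hr at 25C. Cells were ATM-null patient fibroblasts ([…], hTERT), dosed 60 min, then exposed to the DSB inducer NCS for 30 min.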
GALK inh – galactokinase (human) inhibition. AID 1868. Purified GALK, Kinase-Glo residual ATP luminescence. Potency, µM (top dose mostly 57.5 µM), for inactives: top-dose activity change, negative = inhibition, hits mostly inhibitors. actives 0.007% (n = 270,000). P51570; further: potency means the concentration at half of the fitted maximal effect; on the % scale 0 is the no-effect control and ±100 the full control effect
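Human GALK (5 nM) with 35 uM ATP and 100 uM galactose in 20 mM HEPES pH 8.0, 5 mM MgCl2, 60 mM NaCl, 1 mM DTT, 0.01% BSA. After 1 h at room temperature, leftover ATP was read by Kinase-Glo Plus luminescence.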
Giardia killer – kills Giardia lamblia. Giardia lamblia trophozoite viability. actives 0.15% (n = 340,000). activity change, % at 7.66 µM, hits read low; in the data active means activity change below about -80%; inconclusive means between about -30% and that limit;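 further: parasites exposed to compound for two days anaerobically before the ATP read; on the % scale 0 is the no-effect control and ±100 the full control effect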
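Compounds were tested on trophozoites seeded at 100 cells/well and held 48 hrs at 37 deg C anaerobically. An ATP-based luminescent kit measured the remaining live cells.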
BCR signal inh – blocks chronic active B-cell receptor signaling; Potency, µM (doses to about 46.1 µM), for inactives: at the highest dose ratio change, negative = lower green/red ratio, usual class: inhibitors; ABC-DLBCL IkBa-CBG/CBR reporter, luminescence ratio, 4 h; actives 0.05% (n = 340,000); active means well fitted inhibition curve with a large enough effect in the signal ratio, with a control signal flat, not every such curve was filed as active; inconclusive means small, poorly fitted or top-dose-only effect, or effect the other way, or a change in a side signal; the % refers to the signal ratio;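 further: potency means the concentration at half of the fitted maximal effect; plate controls were basal doxycycline-induced cells for no effect and cells given 10 µM MG132 for full effect; MG132 reads +100%, hits lower the ratio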
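TMD8 ABC-DLBCL cells carrying doxycycline-inducible green luciferase fused to IkappaBalpha plus unfused red luciferase were exposed to compounds (up to 46 uM) for 4 hrs at 37C. Activity came from the overlap-corrected green/red luminescence ratio.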
TCR act – activates T cell receptor signaling; primary human leukocytes, anti-CD3, IL-2 HTRF, 48 h; Potency, µM (doses to about 9.22 µM), for the others: at the top dose activation of IL-2 secretion, most hits filed as activators; 330,000 tested, under 10 active; AID 504894; further: % of control where 0% means no effect
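Using a-CD3 beads without co-stimulation, primary human leukocytes were exposed to compounds for 48 hr. An HTRF IL-2 kit measured the cytokine, with europium-to-d2 energy transfer producing emission at 665nm upon 320nm excitation.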
Coupling enz – inhibits coupling enzyme system, counter-screen for aldolase hits; coupling enzyme system counterscreen, AmpLite Red fluorescence; activity change, negative = inhibition, % at 58.2 µM, hits read low; actives 0.67% (n = 290,000); in the data active means activity change below about -30%; further: on the % scale 0 is the no-effect control and ±100 the full control effect
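Coupling enzymes only (glyceraldehyde-3-phosphate) + compound, at 57.5 uM final, 10 min RT; add substrate/coupling/AmpLite Red mix, 20 min RT; fluorescence ex 525/em 598 nm. Actives flag coupling-system interference.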
KCNH2 WT inh – inhibitors of human wildtype KCNH2 potassium channel | AID 720551 | activity change, % at 1.84 µM | actives 0.37% (n = 340,000) | U2OS, BacMam KCNH2, thallium flux FluxOr; hits give low values;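 active means maximum activity change below -70%; inconclusive means maximum activity change between -70% and -50%; inactive means maximum activity change above -50%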; further: on the % scale 0 is the no-effect control and ±100 the full control effect
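U2OS cells transduced with wild-type KCNH2 virus are loaded with FluxOr dye for 45 min, and thallium flux is measured in kinetic reads before and after stimulation buffer. Rate constants are normalized to DMSO controls.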
Tb PFK block – blocks T. brucei phosphofructokinase | actives 0.17% (n = 330,000) | O15648 | Potency, µM (titrated, usually from 57.5 µM), inactives show top-dose activity, negative = inhibition, usual class: inhibitors | T. brucei PFK, ADP-Glo luminescence;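 further: potency means the concentration at half of the fitted maximal effect; 0% = uninhibited 1x PFK enzyme wells and -100% = no-enzyme wells; nearly all actives have a fitted effect of over 60% in size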
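Activity is normalized to no-enzyme wells (full inhibition) and 1.25 nM enzyme wells (no inhibition). Reaction: 0.5 mM F6P, 0.1 mM ATP, 45 min RT, ADP-Glo luminescence; concentration-response curves fitted and classed by quality.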
CXXC DNA block – MLL CXXC-DNA interaction inhibition; Q03164; MLL-CXXC / FITC-HOXA9 DNA fluorescence polarization; Potency, µM (top dose mostly 115 µM), without a hit: at the highest dose activity change, negative = inhibition, actives largely listed as inhibitors; actives 0.037% (n = 290,000); active means well fitted inhibition curve with a large enough effect in the polarisation, with a control signal flat, not every such curve was filed as active; inconclusive means small, poorly fitted or top-dose-only effect, or effect the other way, or a change in a side signal; inactive means no such curve, though single readings can be large or run the other way; the % refers to the polarisation; further: potency means the concentration at half of the fitted maximal effect
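Purified MLL-CXXC (added from a 7 uM solution) was preincubated 5 min at ambient with pinned compounds in 50 mM Tris-HCl pH 7.5, 50 mM NaCl, 1 mM DTT, 0.05% BSA. Fluorescein-labeled HOX-A9 DNA (50 nM solution) followed, 30 min, then polarization read.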
Active calls of the source: *; ? = inconclusive; / = no result given; & = joins results of further samples; [ ] = dose if it differs, or a comment. Unless noted, the call rests on the fitted dose curve; in most records, active means well fitted curve in the direction sought with a large enough effect; inconclusive means small, poorly fitted or top-dose-only effect, or another doubt; inactive means no such curve, though single readings can be large; an effect the other way counts as inactive or inconclusive. The list is partial. The share of hits here may be higher or lower than overall.

Values in the order – A-T KAP1 phos	GALK inh	Giardia killer	BCR signal inh	TCR act	Coupling enz	KCNH2 WT inh	Tb PFK block	CXXC DNA block
1	COc1cc(CO)c(Br)cc1OCC(N)=O
 : 2%	1%	-2	2%	-2%	1	4	7%	-2%
2	CCOc1ccc(NC(=O)c2cnsn2)cc1
 : 6%	-1%	-11	?	-2%	-2	4	-5%	3%
3	NCCc1nc(-c2ccccc2)cs1
 : 0%	3%	-7	?	2%	-5	-3	-7%	8%
4	COC(=O)c1ccc(Cn2nc(-c3cc(C)ccc3C)ccc2=O)cc1
 : 6%	/	5	-4%	0%	1	-4	0%	-9%
5	COc1ccc(-c2csc3ncnc(N4CCN(c5cccc(OC)c5)CC4)c23)cc1
 : 4%	4%	29	-4%	2%	/	8	-4%	-12%
6	CC1(C)O[C@H]2C[C@@H]3[C@H]4CCC5=CC(=O)C=C[C@]5(C)[C@@]4(F)[C@@H](O)C[C@]3(C)[C@]2(C(=O)CO)O1
 : /	/	/	/	/	2	/	/	1%
7	CC(C)[C@@H](C(=O)OCC(=O)c1ccc2c(c1)NC(=O)CO2)N1C(=O)c2ccccc2C1=O
 : /	/	-2	/	0%	/	-3	/	/
8	CCc1ccc(N(CC(=O)N2CCN(Cc3ccccc3)CC2)S(C)(=O)=O)cc1
 : 17%	0%	4	-1%	6%	5	-11	1%	-3%
9	CC(C)[C@H](Nc1ccc(S(=O)(=O)N2CCOCC2)cc1[N+](=O)[O-])C(=O)OCC(=O)N(C(C)C)C(C)C
 : -11%	3%	7	2%	-1%[46.1 µM]	7	1	0%	-2%
10	CN1CCN(c2cc(-c3ccccc3)nc3cc(-c4ccc(F)cc4)nn23)CC1
 : 2%	-3%	3	-27%	1%	-2	26	2%	12%
11	N#C/C(=C(/O)C(Cl)c1ccccc1)c1nc2ccccc2s1 (stereo not given)
 : -4%	-10%	38[activator]	?	-3%	11	-9	-9%	7%
12	Clc1ccc(OCc2cc(-c3ccccc3)no2)cc1Cl
 : 9%	-2%	37[activator]	?	6%	-1	-6	-6%	3%
13	Cc1cccc(NC(=O)Nc2ccc([N+](=O)[O-])cc2)n1
 : -2%	-1%	?	9%	10%	3	-7	0%	8%
14	CCCC(c1nnnn1Cc1ccco1)N1CCN(c2cc(Cl)ccc2C)CC1 (stereo not given)
 : 8%	2%	1	2%	8%	2	-6	-2%	10%
15	NC1=NCC2c3ccccc3Cc3ccccc3N12 (stereo not given)
 : /	/	/	/	/	3	/	/	7%
16	CC(C)NC(=O)C(OC(=O)c1ccccc1)C(OC(=O)c1ccccc1)C(=O)O (stereo not given)
 : 2%	-2%	-2	?	3%	4	-7	3%	-12%
17	CCC(=O)NS(=O)(=O)c1cccnc1Nc1ccccc1Cl
 : -1%	-4%	10	4%	-4%	1	1	0%	-4%
18	O=C(CCCn1ncn2c(cc3occc32)c1=O)NCc1cccc(Cl)c1
 : -12%	5%	-16	-5%	0%	/	15	-13%	15%
19	O=S(=O)(Cc1ccccc1Cl)c1ncn[nH]1
 : -2%	/	1	-1%	-8%	1	-130*	2%	?
20	COc1cccc(OC)c1OCCOCCn1cnc2ccccc2c1=O
 : 2%	2%	-14	3%	-4%	-1	10	-1%	-3%
21	CC(C)C(c1nnnn1Cc1ccco1)N1CCN(c2cccc(Cl)c2)CC1 (stereo not given)
 : 1%	4%	3	9%	14%	2	0	1%	1%
22	O=C(CN(c1ccc2c(c1)OCCO2)S(=O)(=O)c1ccccc1)N1CCN(Cc2ccccc2)CC1
 : -4%	-2%	-8	?	-3%	-2	23	0%	-5%
23	Fc1ccc(-c2cc3nc(-c4ccccc4)cc(N4CCN(CCN5CCOCC5)CC4)n3n2)cc1
 : 12%	3%	10	1%	3%	-1	22	-1%	4%
24	COC(=O)c1c(-c2ccc(SC)cc2)sc2ccc(OC)cc12
 : 8%	/	16	4%	6%	/	-4	-2%	/
25	CCOC(=O)C1=NN(c2ccccc2)C2C(=O)N(c3ccccc3OC)C(=O)C12 (stereo not given)
 : -6%	1%	25	0%	-19%	-1	0	-10%	-7%
26	CCCCN1C2=NCCCN2c2cc(C)c(C)cc21
 : -7%	2%	4	-1%	8%	1	0	3%	16%
27	O=C(C1CCCCC1)N1CC(=O)N2CCc3ccccc3C2C1 (stereo not given)
 : -18%	1%	/	9%	/	-16&3	/	0%	11%&-16%
28	COc1ccc(NC(=O)Nc2cccs2)cn1
 : -7%	10%	?	11%	8%	-3	-6	-6%	8%
29	Cc1sc2ncnc(N3CCC(C(=O)Nc4nnc(CC(C)C)s4)CC3)c2c1C
 : /	/	-1	-13%	-5%	/	1	3%	/
30	COC(=O)c1c(-c2ccc(OC)cc2)sc2cc3c(cc12)OCO3
 : 36%	/	-2	?	7%	/	5	3%	/

Values in the order – A-T KAP1 phos	GALK inh	Giardia killer	BCR signal inh	TCR act	Coupling enz	KCNH2 WT inh	Tb PFK block	CXXC DNA block
31	CCOC(=O)c1cc2ccc3ccccc3c2oc1=O
 : 3%	4%	0	7%	13%	2	-2	0%	-1%
32	COC(=O)c1c(-c2cc(OC)cc(OC)c2)sc2ccc(OC)cc12
 : 7%	/	?	?	3%	/	-2	-13%	/
33	Cn1nnc2c(C(N)=O)ncn2c1=O
 : /	1%	/	1%	/	2&0	/	1%	0%&-3%
34	O=C(NCC(=O)N(CCc1ccccc1)C(C(=O)NC1CCCC1)c1cccnc1)c1ccco1 (stereo not given)
 : 0%	1%	6	0%	-2%	2	-17	-9%	-1%
35	Cc1ccc(-c2nn(-c3ccccc3)c3[nH]c(=O)c(CNCCN(C)C)cc23)cc1
 : 0%	0%	/	-1%	/	-3	/	-2%	12%
36	Cc1ccc(Nc2ccc(S(=O)(=O)N3CCOCC3)cc2[N+](=O)[O-])c(C)c1
 : -6%	-1%	-9	-1%	1%[46.1 µM]	-4	-1	0%	-6%
37	COC(=O)C1=NN(c2cccc(C)c2)C2C(=O)N(c3ccccc3OC)C(=O)C12 (stereo not given)
 : 0%	/	-11	1%	-5%[46.1 µM]	0	-3	-1%	9%
38	c1ccc(C2C3=C(CCCC3)Nc3ncnn32)cc1 (stereo not given)
 : -6%	0%	6	1%	6%	0	12	0%	-5%
39	CC1(C)Cc2ccccc2C(C(=O)c2ccccc2)=N1
 : 29%	/	15	1%	1%	1	-9	-4%	13%
40	COc1ccc(CNC(=O)CCCn2ncn3c(cc4occc43)c2=O)cc1
 : 7%	-4%	-6	?	-1%	-1	2	-2%	24%
41	CCSC(=N)N
 : 16%	/	12	1%	-2%	0&4	-2	-6%	-1%
42	C=C(C)c1ccccc1
 : 6%	/	7	?	-5%	/	8	-1%	/
43	O=C(/C=C1\NC2(CCCC2)Cc2ccccc21)N1CCOCC1
 : 0%	0%	25	-1%	4%	0	-6	-2%	-4%
44	CS(=O)(=O)N(CC(=O)N1CCCC1)c1ccc(OCc2ccccc2)cc1
 : 0%	-2%	11	-1%	-7%	9	0	-1%	-5%
45	CC1CCCCC1NC(=O)c1nn(C)c2c1CS(=O)(=O)c1ccccc1-2 (stereo not given)
 : 5%	7%	10	7%	2%	-1	1	0%	-6%
46	CC(NCc1ccc2c(c1)OCO2)C(=O)NC1CCCCC1 (stereo not given)
 : 3%	-3%	9	4%	-1%	-1	17	5%	-6%
47	CC(C(=O)NC(C)(C)C)N(Cc1cccs1)C(=O)CCN1CCc2ccccc21 (stereo not given)
 : -2%	-2%	5	-2%	-2%	1	-11	-1%	-4%
48	CCCCC1=NC2(CCCC2)C(=O)N1Cc1ccc(-c2ccccc2-c2nn[nH]n2)cc1
 : /	-1%	/	-3%	/	4&8	/	9%	-1%&-6%
49	Cc1sc(NC(=O)C2CC(Cl)=CCC2C(=O)O)c(C#N)c1C (stereo not given)
 : 0%	8%	9	18%	0%	11	14	-1%	-2%
50	CC(=O)c1ccc(NC(=O)CSc2nnc(-c3ccoc3C)n2Cc2ccccc2)cc1
 : -9%	1%	-25	2%	-9%	4	-10	2%	-5%
51	COc1ccc(/C=C2\N=C(C)N(c3ccc(C(=O)O)cc3)C2=O)cc1OC
 : -3%	2%	-13	-5%	1%[46.1 µM]	-2	5	11%	17%
52	COc1ccc(NC(=O)C(c2cc3c(cc2[N+](=O)[O-])OCO3)N(C)Cc2ccccc2)cc1 (stereo not given)
 : -1%	1%	10	-1%	0%[46.1 µM]	-1	-1	5%	22%
53	O=C(Nc1ccc2c(c1)Cc1ccccc1-2)c1ccco1
 : 6%	1%	-5	?	7%	2	-5	0%	14%
54	Cc1c(C(=O)OCC(=O)N(C)Cc2ccc(Cl)cc2)oc2ccccc12
 : 2%	/	-19	-10%	-3%	/	-2	-9%	/
